CDC25B-CDK2 inh: human CDC25B-CDK2/CyclinA binding inhibition; P30305+P24941; HTRF CDC25B-CDK2/CyclinA binding, anti-His/anti-Flag; stronger effect = higher value; z-score (no concentration beside the values); actives 0.72% (n = 94,000);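 further: score is relative to mean and SD of negative controls; strong numbers were not always called active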
HIV TAR-Tat: HIV-1 TAR-Tat binding disruption | actives 0.6% (n = 100,000) | z-score (concentration not given with the values) | HIV-1 TAR RNA, Tat peptide displacement FRET; stronger effect = higher value | AID 1259389;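 further: score is relative to mean and SD of negative controls; some compounds called inactive have numbers as strong as hits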
Numbers without * were called inactive; / = no result given.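 How the source made its calls: active means z-score from 3 up in half or more of its runs; inactive means the rest.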

Every second line gives: CDC25B-CDK2 inh	HIV TAR-Tat
O=S(=O)(Nc1ccc(-c2nc3ccccc3s2)cc1)c1ccccc1
  0.06	0.27
CC1CCN(C(=O)c2c(NC(=O)c3ccco3)sc3c2CCC(C(C)(C)C)C3)CC1 (centres undefined)
  -1.3	/
Cc1oc2ccc(O)c(Cl)c2c1C(=O)O
  -1.6	0.93
Cn1c(C(=O)N2CCCC(C(=O)N3CCc4ccccc4C3)C2)cc2sccc21 (centres undefined)
  -0.97	1.8
Cc1ccc(NS(=O)(=O)c2ccc(-c3coc(C)n3)cc2)c(C)c1
  /	1.1
COc1ccc(Cc2nc3c4cnn(-c5ccccc5F)c4ncn3n2)cc1
  -4	1.2
COc1cc(-c2nc3ncccn3c2Nc2ccc(C)cc2C)ccc1O
  -2.2	2.6
Cc1csc(NN=C2CCCCC2)n1
  -1.2	/
O=C1Cc2cc(S(=O)(=O)N3CCN(c4ccccc4)CC3)ccc2N1
  -0.89	0.85
O=C(CCC(=O)N1CCOc2ccccc21)N1CCOCC1
  -1.6	-1.2
CCCSC1=C(C#N)C(c2ccc(F)cc2)CC(=O)N1 (centres undefined)
  -0.78	0.79
CC(C)C1COC(c2cccn2Cc2c(F)cccc2Cl)=N1 (centres undefined)
  -2.4	2.4
CNC(=O)C(=O)NC1CC(C)(C)NC(C)(C)C1
  -0.76	0.44
CN1CCN(c2ncc3c(n2)CCN(Cc2cccc(Cl)c2)C3)CC1
  /	1.7
CN(C)c1nc(NCc2ccccc2)c2cnn(C)c2n1
  /	1.3
CN(C)c1nc(OCCNS(=O)(=O)c2ccccc2)nc(N(C)C)n1
  0.9	0.04
CSc1nnc2c(n1)OC(C)Nc1ccccc1-2 (centres undefined)
  -2	-0.82
Clc1cccc(-n2ncc3c(NCCCc4ccccc4)ncnc32)c1
  /	0.3
COC(=O)c1cc(N2C(=O)C3C4c5ccccc5C(C(C)=O)(c5ccccc54)C3C2=O)ccc1Cl (centres undefined)
  -5	/
CC(C)CCN1CCC(CNS(=O)(=O)c2ccc(-c3ccc(=O)[nH]n3)s2)CC1
  /	0.67
O=C(CSc1nc2ccccc2c(=O)[nH]1)NCc1ccc2c(c1)OCO2
  /	14*
COC(=O)C(NC(=O)CCc1nnc2ccc(N3CCCCC3)nn12)C(C)C (centres undefined)
  /	1.3
Cc1cc(C)cc(NC(=O)Cn2nc3c4sccc4ncn3c2=O)c1
  /	0.66
O=C(CCCc1nnc2n3nc(-c4ccccc4)nc3c3ccccc3n12)NC1CCCCC1
  1.1	1.3
NNC(=O)COc1ccc(C2SCCS2)cc1
  -0.88	/
Cc1ccc(Nc2nc(N)c([N+](=O)[O-])c(NCc3ccco3)n2)cc1C
  /	-1.2
COc1ccc(OC)c(CCNC(=O)NCc2noc3ccccc23)c1
  /	-1.3
Cn1cc2c(c1-c1cccc(Br)c1)c(=O)n(C)c(=O)n2C
  -0.4	2.7
O=C(CN1C(=O)CCCc2ccccc21)NC1CCCC1
  /	0.76
Cc1ccnc(NS(=O)(=O)c2cccs2)c1
  -1.5	1.1
Cc1c(C(=O)NCCCN2CC(C)CC(C)C2)oc2ccc3c(c12)C(O)CC1(CCCCC1)O3 (centres undefined)
  -1.1	-0.63
O=S1(=O)CCN(Cc2cc3ccccc3s2)CC1
  0.38	/
CCOc1ccc(S(=O)(=O)n2nc(C)c(S(=O)(=O)N3CCCC(C)C3)c2C)cc1 (centres undefined)
  /	-0.14
COc1cccc(-c2cn3nc(C(C)C)sc3n2)c1
  -2.3	2.1
Cc1ccc2[nH]cc(NC(=O)N3CCCC(c4ccccc4)C3)c(=O)c2c1 (centres undefined)
  0.28	1.4
Cc1nnc2c(Nc3ccccc3Cl)nc3ccccc3n12
  -1.1	0.58
CC(Oc1ccc(C(C)C)cc1)C(=O)N(Cc1ccco1)C1CCS(=O)(=O)C1 (centres undefined)
  -2.4	2.5
CCOC(=O)CO/N=C(\C(=O)O)c1ccn[nH]1
  -0.22	/
CC(=O)Nc1ccc(-n2cccc(C(=O)NCC3CCCO3)c2=O)cc1 (centres undefined)
  /	1.6
Cc1cc(-c2ccc(C)c(S(=O)(=O)N3CCN(c4ncccn4)CC3)c2)on1
  /	0.08
CC1(C(=O)NC2CCCC2)Cn2c(ccc2-c2ccco2)C(=O)N1CCCN1CCOCC1 (centres undefined)
  /	1.9
Cc1cc(C)n2ncc(C(=O)N3CCN(c4ccc(Cl)cc4)CC3)c2n1
  /	1.2
O=C(CCc1nnc2ccc(NCc3ccco3)nn12)NC1CCCC1
  /	0.54
O=C(Cn1c(=O)sc2ccccc21)Nc1ccccc1Cl
  -0.34	1.2
CCOC(=O)C1CCN(S(=O)(=O)c2ccc3c(ccn3C)c2)CC1
  0.57	2.4
Cc1nc(-c2cccnc2)sc1CCNS(=O)(=O)c1ccc2c(c1)CCCC2
  /	0.67
O=C(CC1c2ccccc2Oc2ccccc21)NCc1ccco1
  1.6	0.63
CCOCCSc1nc2c(c(=O)[nH]1)C(C1CCCC1)Cc1ccccc1-2 (centres undefined)
  -0.41	/
Cc1cccc(OCc2nn3c(Cc4ccccc4)nnc3s2)c1
  -0.75	0.8
CCOC(=O)C1CCC(CNC(=O)N2CCC3(CC2)c2cccn2-c2ccc(C)cc2N3CC)CC1 (centres undefined)
  /	0.3
Cc1ccc(Cl)cc1N1CCN(Cc2csc(C)c2C)CC1
  /	1.3
COc1cc2[nH]c(=O)n(C3CCCC3)c(=O)c2cc1OC
  -2.9	-1.6
COc1cc(NS(=O)(=O)c2c(C)nc3sc4cc(C)ccc4n3c2=O)cc(OC)c1
  /	1.1
CSc1cnc(Nc2nc(-c3ccc(Br)cc3)cs2)nc1
  3	1.9
COc1cc(C2C(N3C(=O)c4ccccc4C3=O)C(=O)N2c2ccc(Cl)cc2)cc(OC)c1OC (centres undefined)
  -0.25	/
CCn1nc(C)c(CCNC(=O)Nc2ccc(Br)cc2)c1C
  /	-0.57
Cc1cc2c(cc1S(=O)(=O)CCC(=O)NC1CCC(C)CC1)OCC(=O)N2 (centres undefined)
  /	1.8
CN(C)c1ccc(/C=C/c2nc(-c3ccccc3O)n[nH]2)cc1
  -1.2	2.7
CCCCn1nnc2c(sc3nc(C)ccc32)c1=O
  -0.43	3.1
COCCNC(=O)Cn1c2ccccc2c2nc(=O)cc(C)n21
  -0.73	-1.4

6 compounds drawn at random from those above, as already listed:
Every second line gives: CDC25B-CDK2 inh	HIV TAR-Tat
COCCNC(=O)Cn1c2ccccc2c2nc(=O)cc(C)n21
  -0.73	-1.4
COc1cc(C2C(N3C(=O)c4ccccc4C3=O)C(=O)N2c2ccc(Cl)cc2)cc(OC)c1OC (centres undefined)
  -0.25	/
CC(Oc1ccc(C(C)C)cc1)C(=O)N(Cc1ccco1)C1CCS(=O)(=O)C1 (centres undefined)
  -2.4	2.5
CN(C)c1ccc(/C=C/c2nc(-c3ccccc3O)n[nH]2)cc1
  -1.2	2.7
COc1cc(NS(=O)(=O)c2c(C)nc3sc4cc(C)ccc4n3c2=O)cc(OC)c1
  /	1.1
Cc1nc(-c2cccnc2)sc1CCNS(=O)(=O)c1ccc2c(c1)CCCC2
  /	0.67

Next section:
Every second line gives: CDC25B-CDK2 inh	HIV TAR-Tat
COc1ccc2c(c1)CC(C(=O)Nc1nccs1)CO2 (centres undefined)
  /	0
O=C(c1cnn(-c2ccccc2)c1-n1cccc1)N1CCCC(C(=O)N2CCCCC2)C1 (centres undefined)
  -0.51	-0.65
Cc1ccc(N2CCN(C(=O)Nc3c[nH]c4ccc(C)cc4c3=O)CC2)c(C)c1
  -0.77	-0.6
CC1=C(C(=O)N2CC(C)CC(C)C2)C2(CCCCC2)OC1=O (centres undefined)
  -0.87	-0.08
Cc1cccc(-c2nc3c(C#N)c[nH]n3c2NC2CCCCC2)c1
  -1.7	1.4
O=c1c2c3c(sc2ncn1Cc1ccc(F)cc1)CCC3
  -0.75	0.81
CCOc1ccccc1NC(=O)Nc1c(C)nc2nc[nH]n2c1=O
  /	0.67
Cc1nc2c(C(=O)O)cnn2c(C)c1Cc1ccc(Cl)cc1
  /	0.65
CCOC(=O)C1C(=O)CC(C)(O)C(C(=O)OCC)C1c1ccc(O)c(OC)c1 (centres undefined)
  /	2
CCCCC12CN3CC(C)(CN(C1)C3c1cc(Br)ccc1OC)C2=O (centres undefined)
  0.44	0.97
CN(CCNC(=O)Cc1noc2ccccc12)C1CCCCC1
  -1.2	1.8
O=C(Nc1ccc2oc(-c3c(F)c(F)c(F)c(F)c3F)nc2c1)c1cccc2ccccc12
  -0.26	/
O=C(Nc1nnc(C2CC2)s1)c1cc(-c2ccc(Cl)cc2)oc1C(F)(F)F
  -2.8	/
COc1ccc(Oc2coc3cc(OCCc4ccccc4)ccc3c2=O)cc1
  -1	0.81
CCCNc1nc(Nc2ccc(C)c(C)c2)c2cnn(C)c2n1
  /	0.65
Cc1nc2c3ccccc3n3c(CCCC(=O)NC4CC4)nnc3n2n1
  0.42	0.38
O=C(CSc1ccsc1[N+](=O)[O-])NCc1ccc(Cl)cc1
  -0.85	-0.35
CN(CC(=O)Nc1nc2ccc(Cl)cc2s1)S(=O)(=O)c1c[nH]c(C(=O)N2CCCCC2)c1
  /	2.3
NC(=O)c1csc(-c2cccnc2)n1
  0.74	/
Cc1cc2nnc(SCC(=O)Nc3c(C)n(C)n(-c4ccccc4)c3=O)n2c2c(C)cccc12
  -1.3	-0.32
CN(/N=C/c1cc(Cl)cc(Cl)c1O)C(=S)SCc1c(F)cccc1Cl
  -2	/
Cc1cc(C)c(NC(=O)CSc2nc(C)nc3c2CCC3)c(C)c1
  1.7	1.4
Cc1ccc2ccc(C(Nc3ccccn3)c3ccccc3)c(O)c2n1 (centres undefined)
  -0.39	1.3
Cc1nn(CC(=O)N2CCC(C(N)=O)CC2)c(=O)c2c(-n3cccc3)n(-c3ccc(Cl)cc3)nc12
  /	1
Cc1noc(-c2ccccc2)c1NC(=O)Nc1ccccc1
  -1.4	/
CCCNC(=O)CNS(=O)(=O)c1cccs1
  /	0.26
Cc1nnc(N2C(=O)C(O)=C(C(=O)c3cccs3)C2c2ccc(C(C)(C)C)cc2)s1 (centres undefined)
  -0.7	-2.5
CCOc1nc(-c2ccc(OC)cc2)ccc1-c1noc(-c2ccncc2)n1
  2.3	-0.95
COc1cc(OC)cc(-c2nc(-c3cc4cc(OC)ccc4[nH]c3=O)no2)c1
  -1.8	1.4
N#Cc1nc(/C=C/c2ccccc2)oc1N1CCN(C(=O)c2cccc(Cl)c2)CC1
  -2.8	0.35
CCCCC(C)n1[nH]c(=O)c2c(C)cc(C)nc21 (centres undefined)
  -0.59	0.64
O=C1CC(N2CCN(c3ncccn3)CC2)C(=O)N1c1ccc(Cl)cc1 (centres undefined)
  -1.2	-0.35
NC(=O)c1c(NC(=O)c2cc3n(n2)C(C(F)(F)F)CC(c2ccco2)N3)sc2c1CCCC2 (centres undefined)
  0.41	/
CC(C)=CC1C(C(=O)Nc2ccc(Cl)cn2)C1(C)C (centres undefined)
  -2.7	/
CC1(C)CC(=O)C2=C(C1)NC1=C(C(=O)c3ccccc31)C2c1ccc([N+](=O)[O-])o1 (centres undefined)
  0.25	1.2
O=S(=O)(Nc1cccc(N2CCCS2(=O)=O)c1)c1ccc2c(c1)CCCC2
  /	-0.17
CCOC(=O)CSc1nnc(-c2ccccc2OC)o1
  -0.38	/
COc1ccccc1N1CCN(C(=O)C(C)Oc2ccnc3c(C)ccc(C)c23)CC1 (centres undefined)
  1.1	/
O=C1CSc2ccc(S(=O)(=O)N3CCC(C(=O)NC4CCCC4)CC3)cc2N1
  /	2.1
CCCCN(CC)S(=O)(=O)c1cc(-c2cc(C)no2)ccc1CC
  /	-0.01
O=C1CC(c2ccccc2F)c2c(n[nH]c2-c2ccccc2)N1 (centres undefined)
  -0.76	-0.93
CCOC(=O)CSC(=O)NC(=O)c1snnc1C
  -0.75	/
CCN1C(=O)C2(/C(=C(/O)c3ccc(F)cc3)C(=O)C(=O)N2CCN2CCOCC2)c2ccccc21 (centres undefined)
  0.86	1.3
O=S1(=O)C[C@H](NCCc2ccccc2F)[C@@H](S(=O)(=O)c2ccc(Cl)cc2)C1
  -1.3	-0.92
CCOC(=O)c1[nH]c(C)c(C(=O)NCCCN2CCCC2)c1C
  -1.4	2
NS(=O)(=O)c1ccc(Sc2ccccc2)s1
  -0.78	/
CCc1ccc(S(=O)(=O)c2cnc3ccc(C)cc3c2N2CCN(C)CC2)cc1
  0.21	-1.8
O=C(CN(C1=NC2CS(=O)(=O)CC2S1)c1ccccc1)Nc1ccc(F)cc1 (centres undefined)
  -2.2	5.2
Oc1cccc(-c2nc3ncccn3c2Nc2ccccc2)c1
  -2.2	0.21
O=C1CCCc2cc(S(=O)(=O)NCC3CCC(C(=O)NCCC4=CCCCC4)CC3)ccc2N1 (centres undefined)
  /	-0.17
CCc1cc(=O)[nH]c(Nc2ccc(F)cc2)n1
  -1.5	0.4
Cc1onc(-c2c(F)cccc2Cl)c1C(=O)N1CC(Oc2ccc(Cl)cc2)C1
  -0.84	/
CCOC(=O)C(C)Oc1ccc2c(=O)c(-c3ccc(OC)c(OC)c3)c(C(F)(F)F)oc2c1 (centres undefined)
  -0.47	2.2

Profiles, quoted from the list. Values in the order: CDC25B-CDK2 inh, HIV TAR-Tat
`CCOC(=O)c1[nH]c(C)c(C(=O)NCCCN2CCCC2)c1C` is listed as -1.4, 2
`O=C(CN(C1=NC2CS(=O)(=O)CC2S1)c1ccccc1)Nc1ccc(F)cc1` (centres undefined) is listed as -2.2, 5.2
`NS(=O)(=O)c1ccc(Sc2ccccc2)s1` is listed as -0.78, /

Source: PubChem BioAssay (Center for Chemical Genomics, University of Michigan)
